ugtP null kill: growth inhibition of ugtP-null S. aureus, primary screen, RN4220 ugtP deletion, OD600; 16 h; some inactives read as strong as hits; growth inhibition, % (test concentration not listed); 330,000 compounds, 0.54% hits; AID 1259309, 2017;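 active = z-score under -3 and OD600 up to 0.15 on both plates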;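 also: plate controls were untreated wells for no effect and antibiotic for full effect; wells of about 80 µL received 100 nL stock; the first replicate is given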
Mtb hypoxia rep: PubChem AID 1159583. M. tuberculosis hypoxia-regulated fluorescent reporter, fluorescence. fluorescence inhibition, % (concentration not given with the values). 300,000 compounds, 0.1% hits;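 active = 35 to 45% if threefold the growth effect, above 45% if 1.5-fold the growth effect; inactive = the rest, general growth blockers included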;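 also: wells of about 50 µL received 100 nL stock; 0% = vehicle wells and 100% = reference inhibitor wells; whole bacteria with a GFP reporter of the hypoxia response; strong numbers were not always called active; many hits fall short of the cut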
BJeLR lethal: MLPCN primary cell-based screen for lethality selective to Ras in HRASV12 cells; BJeLR (HRASV12) viability, CellTiter-Glo ATP luminescence, 48 h; reference of the scale not given here; inhibition, % (concentration not given with the values); 300,000 compounds, 0.17% hits;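 active = replicate mean above 50%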;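 also: 50 nL library stock added to about 25 µL; numbers are from one replicate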
Autofluor counter: counter-screen for toxin protease inhibitors: compound fluorescence | compound autofluorescence counterscreen, microsphere flow cytometry; hits give high values | fluorescence intensity (concentration not given with the values) | 360,000 compounds, 3.1% hits | AID 624483;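 active = at least 3 SD above the mean of all compounds, about 16000 in these data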;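 also: 100 nL of 1 mM stock went into each well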
PrP 5UTR inh: inhibition of PrP 5' UTR reporter expression | cell-based PrP 5' UTR mRNA reporter, plate reader | inhibition, % (concentration not given with the values) | 340,000 compounds, 0.35% hits | AID 488862, 2010;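 active = every replicate at 50% or more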;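 also: 0 = median of the neutral control wells; tested in H4 reporter cells; numbers are from one replicate; inactives centre near -14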
RN4220 kill: growth inhibition of S. aureus RN4220, primary screen, OD600. 330,000 compounds, 0.33% hits. inhibition, % (test concentration not listed). 16 h;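 active = z-score of -3 or lower and OD600 up to 0.18 on both plates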;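 also: plate controls were untreated cells for no effect and reference antibiotic for full effect; stock transfer was 100 nL into about 80 µL; one replicate is shown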
Mtb hypoxia rep growth: further read-out of Mtb hypoxia rep, marked with its call; growth inhibition, %; measured here: M. tuberculosis growth (absorbance);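 0% = vehicle and 100% = reference antibiotic; read after six days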
* marks the source's active call; other numbers are inactive results; . = not tested or not shown.

entry	Structure	ugtP null kill	Mtb hypoxia rep	Mtb hypoxia rep growth	BJeLR lethal
1	O=C1C2C(c3ccccc3)CC=CC2C(c2cccc([N+](=O)[O-])c2)N1Cc1ccccc1 (configuration not stated)	-8	3	5	.
2	C=CCn1c(SCC(=O)Nc2sccc2C(N)=O)nc2ccc(Cl)cc2c1=O	-6	.	.	0
3	COC(=O)C1=C(c2cccc(OC)c2OC)C[C@@H]2CC[C@H]1N2C(=O)NCCO	.	.	.	5
4	Cc1nc2ccccc2c(=O)n1NC(=O)c1cccnc1Cl	3	0	5	-7
5	CSc1nc(N)n2nc(C(C)(C)C)cc2n1	9	16	6	-1
6	O=C(Nc1nnc(SCc2ccc(F)cc2)s1)c1ccco1	5	-3	-3	16
7	Oc1ccc(Cl)cc1CNC1CCCCC1	-1	7	8	.
8	COc1cc(OC)c(C2NC(=O)CCC2[N+](=O)[O-])cc1OC (configuration not stated)	2	6	0	9
9	C/C(C=Nn1c(COc2ccccc2)n[nH]c1=S)=C\c1ccco1	-7	3	2	.
10	Cc1nc2ccccc2c(=O)n1-c1cc(F)ccc1F	3	16	7	-10
11	O=C(CCCC(=O)N(c1ccc2c(c1)OCCO2)C(C(=O)NC1CCCCC1)c1ccc(Cl)cc1)Nc1ccccn1 (configuration not stated)	-6	4	0	-2
12	COc1ccc(Br)cc1CNc1ccccc1	-1	-1	-6	3

entry	Autofluor counter	PrP 5UTR inh	RN4220 kill
1	.	.	-8.8
2	2478	-15	-3.2
3	2897	3	.
4	2084	-15	12
5	4290	-16	7.0
6	2571	-12	-4.1
7	3089	-9	6.6
8	3465	7	1.3
9	.	.	5.0
10	3208	-17	6.3
11	12529	-22	1.3
12	3808	-27	-3.7

Following part:
entry	Structure	ugtP null kill	Mtb hypoxia rep	Mtb hypoxia rep growth	BJeLR lethal
13	CCCCCCOC(=O)c1ccc(NC(=O)c2cc(OC)c(OC)c(OC)c2Br)cc1	16	.	.	-11
14	Cc1ccc(S(=O)(=O)NC2CCCCC2)cc1C(=O)N1CCC(C(N)=O)CC1	6	1	2	.
15	C/C(=N/NC(=O)CNS(=O)(=O)c1ccccc1)c1ccc(Br)cc1	.	.	.	-2
16	COc1ccccc1CNC(=O)c1ccc(NS(C)(=O)=O)cc1	9	1	8	4
17	COCC(C)NC(=O)CSc1nc2ccccc2n1CCc1ccccc1 (configuration not stated)	6	14	-4	.
18	O=C1C=C(NS(=O)(=O)c2ccccc2)C(=O)c2ccccc21	-12	22	17	.
19	O=S(=O)(/N=C(/Nc1ccc(F)cc1F)c1ccccc1)c1ccccc1	7	13	-2	14
20	CCCCN(CC)CCCNC(=O)c1cc2c(=O)[nH]c3ccccc3c2s1	5	14	12	1
21	Cc1cc(S(=O)(=O)N2CCN(c3ncccn3)CC2)ccc1-n1cnnn1	4	.	.	1
22	COc1ccccc1NC(=O)c1nnn(CC(=O)Nc2cccc(SC)c2)c1N	-9	2	3	6
23	COc1ccc(N2C(=O)CCC(C(=O)N3CCN(c4ccccn4)CC3)C2c2ccc(F)cc2)cc1 (configuration not stated)	5	11	8	-6
24	CCOC(=O)c1cc(C(=O)NN)c(=O)[nH]c1C	-10	-16	10	6

entry	Autofluor counter	PrP 5UTR inh	RN4220 kill
13	2765	-17	-11
14	6046	-6	1.6
15	3569	-26	.
16	6854	-5	-1.1
17	2372	8	8.7
18	3805	-8	14
19	2427	1	3.9
20	3781	-50	1.4
21	4831	-5	-0.4
22	22055*	-30	2.9
23	3329	-14	5.6
24	4049	-3	0.1

Arranged by number of heavy atoms (rising): some entries from above
entry	Structure	ugtP null kill	Mtb hypoxia rep	Mtb hypoxia rep growth	BJeLR lethal
16	COc1ccccc1CNC(=O)c1ccc(NS(C)(=O)=O)cc1	9	1	8	4
15	C/C(=N/NC(=O)CNS(=O)(=O)c1ccccc1)c1ccc(Br)cc1	.	.	.	-2
20	CCCCN(CC)CCCNC(=O)c1cc2c(=O)[nH]c3ccccc3c2s1	5	14	12	1
14	Cc1ccc(S(=O)(=O)NC2CCCCC2)cc1C(=O)N1CCC(C(N)=O)CC1	6	1	2	.
22	COc1ccccc1NC(=O)c1nnn(CC(=O)Nc2cccc(SC)c2)c1N	-9	2	3	6
23	COc1ccc(N2C(=O)CCC(C(=O)N3CCN(c4ccccn4)CC3)C2c2ccc(F)cc2)cc1 (configuration not stated)	5	11	8	-6

entry	Autofluor counter	PrP 5UTR inh	RN4220 kill
16	6854	-5	-1.1
15	3569	-26	.
20	3781	-50	1.4
14	6046	-6	1.6
22	22055*	-30	2.9
23	3329	-14	5.6

Later entries.
entry	Structure	ugtP null kill	Mtb hypoxia rep	Mtb hypoxia rep growth	BJeLR lethal
25	CCCCC1=CC2=C(c3ccco3)C(=O)C(C)(OC(=O)c3ccc(OC)cc3)C(=O)C2=CN1CC(C)C (configuration not stated)	3	11	11	-4
26	Cc1ccc2nc(SCC(=O)Nc3nnc(SCC(N)=O)s3)[nH]c2c1	8	9	10	-15
27	O=C(CSc1ccc2nnc(-c3cccc(F)c3)n2n1)N1CCCc2ccccc21	4	-4	-6	8
28	COc1ccc2cc(C(c3nnnn3C3CCCCC3)N3CCCCCC3)c3nnnn3c2c1 (configuration not stated)	4	.	.	-5
29	CS(=O)(=O)c1ccc(C(=O)OCC(=O)N2CCCc3ccccc32)cc1	4	9	7	4
30	Nc1ccc(C(=O)n2c3ccccc3c3ccccc32)cc1	8	14	14	25
31	O=C(COc1ccc(-n2cnnn2)cc1)Nc1ccc(Br)cc1F	2	5	5	.
32	COc1ccc2c(c1)cc(C(=O)NN=Cc1c(O)c(C(=O)O)cc3ccccc13)n2C	-2	-6	-1	.
33	COc1ccc2c(=O)c(N3C(=O)c4ccccc4C3=O)coc2c1	-2	3	5	-4
34	COc1ccccc1NC(=O)c1cc(Cl)nnc1Cl	8	8	7	-2
35	Cc1ccc(CC2C(=O)N(C)C(=O)N(C)C2=O)s1	6	2	5	-11
36	N#CCCN(C(=O)c1cc2c(s1)-c1ccccc1S(=O)(=O)C2)c1ccccc1	-4	-6	-5	-13

entry	Autofluor counter	PrP 5UTR inh	RN4220 kill
25	3701	1	8.2
26	20623*	-27	3.6
27	1944	-18	6.8
28	3526	-5	5.5
29	5226	-11	1.7
30	2985	-5	-11
31	3807	-17	8.0
32	.	.	5.2
33	10113	-13	3.3
34	3473	-14	-0.6
35	21258*	-2	5.5
36	5591	12	3.0

An excerpt from above, limited to BJeLR lethal and ugtP null kill.
cpd	canonical_smiles	BJeLR lethal	ugtP null kill
25	CCCCC1=CC2=C(c3ccco3)C(=O)C(C)(OC(=O)c3ccc(OC)cc3)C(=O)C2=CN1CC(C)C (configuration not stated)	-4	3
24	CCOC(=O)c1cc(C(=O)NN)c(=O)[nH]c1C	6	-10

The results go on:
entry	Structure	ugtP null kill	Mtb hypoxia rep	Mtb hypoxia rep growth	BJeLR lethal
37	COc1cc(C2Nc3cccc4cccc(c34)N2)ccc1O	11	10	1	-9
38	CCOP(=O)(OCC)c1ccc(OP(=O)(c2cccc([N+](=O)[O-])c2)c2cccc([N+](=O)[O-])c2)cc1	14	17	3	-20
39	COc1ccccc1N1CCN(C(=O)c2ccc(CS(=O)(=O)c3ccccc3OC)o2)CC1	0	-3	-2	-7
40	CCOC(=O)c1c(/N=C/c2cccc([N+](=O)[O-])c2O)sc2c1CCC2	.	.	.	-7
41	COc1ccc(-n2cccc2/C=C2\C(=N)N3N=C(c4ccco4)SC3=NC2=O)cc1	15	-22	0	-1
42	COc1cc(/C=N/NC(=O)c2nnn(-c3nonc3N)c2C(C)C)ccc1O	.	.	.	-14
43	CCOc1ccc(C(=O)NC(C(=O)NCCc2ccc(S(N)(=O)=O)cc2)C(C)C)cc1 (configuration not stated)	-6	9	3	-2
44	O=C(Nc1ccc(S(=O)(=O)Nc2ncccn2)cc1)c1ccc(S(=O)(=O)N2CCCC2)cc1	-4	17	16	6
45	CCC(C)N1CCN(C(=O)C2CCN(S(=O)(=O)c3c(C)noc3/C=C/c3ccco3)CC2)CC1 (configuration not stated)	-3	-4	1	14
46	O=C(O)c1cccc(S(=O)(=O)N2CCCC(c3nc4c(nnn4Cc4ccccc4Cl)c(=O)[nH]3)C2)c1 (configuration not stated)	8	3	7	-10
47	CCC(=O)NC(=S)Nc1ccc(NC(=O)c2ccc([N+](=O)[O-])cc2Cl)cc1	14	.	.	-2
48	CCOCCCNC(=O)CN1CCN(Cc2ccc(Cl)cc2)C1=O	8	13	11	-6

entry	Autofluor counter	PrP 5UTR inh	RN4220 kill
37	3240	-23	0.1
38	4345	-1	2.1
39	16680*	-9	1.6
40	4846	-13	.
41	2117	-7	15
42	6280	-20	.
43	4608	-22	10.0
44	4878	2	-0.5
45	4608	4	-1.9
46	4630	-15	3.4
47	2586	1	4.3
48	3209	-15	-1.5

The list continues:
entry	Structure	ugtP null kill	Mtb hypoxia rep	Mtb hypoxia rep growth	BJeLR lethal
49	COc1ccc(C2C(=O)c3ccccc3C2=O)cc1OC	1	3	-2	.
50	CC(=NNC(=O)c1nnn(-c2nonc2N)c1COc1ccccc1)c1ccccc1Cl	-12	-6	2	.
51	O=C(COc1ccc(Cl)cc1)Nc1nc(-c2cccs2)cs1	1	6	2	2
52	Cn1nccc1C(=O)N1CCCC(Nc2ccc(F)cc2)C1 (configuration not stated)	-3	5	0	11
53	Cc1nn(Cc2cccc(C(=O)Nc3ccn(Cc4ccccc4)n3)c2)c(C)c1[N+](=O)[O-]	-10	-14	0	-2
54	CCCCn1c(-c2cccs2)nc2oc3ccccc3c(=O)c2c1=O	-20	-1	16	6
55	Cc1ccccc1NC(=O)CSc1nnc(-c2ccco2)n1N	0	10	0	4
56	Cc1nn(-c2cc(C(F)(F)F)ccc2Cl)c2nc(C(Cl)(Cl)Cl)[nH]c(=O)c12	39	0	-4	0
57	Cc1ccc(NC(=O)C2CCCC2)c(Br)c1	9	13	2	3
58	CCn1c(C)csc1=NC(=S)Nc1ccccc1C	-4	9	7	.
59	CCCn1c(SCC(=O)NC(C)c2ccccc2)n[nH]c1=O (configuration not stated)	8	2	5	-4
60	C=CCN(CC=C)S(=O)(=O)c1ccc(NC(=S)NC(=O)/C=C/c2ccc(C)cc2)cc1	-1	.	.	4

entry	Autofluor counter	PrP 5UTR inh	RN4220 kill
49	2126	2	4.3
50	.	.	0.7
51	2585	-15	13
52	4665	12	-0.6
53	7864	-13	-5.8
54	3770	-31	2.6
55	6377	-19	3.0
56	3837	1	41
57	2800	-20	2.7
58	.	.	3.9
59	5158	-3	2.5
60	2295	-25	2.0

Going on with the list:
entry	Structure	ugtP null kill	Mtb hypoxia rep	Mtb hypoxia rep growth	BJeLR lethal
61	CCOc1cc(N2CCOCC2)c(OCC)cc1NC(=O)Cc1ccccc1OC	7	.	.	2
62	CSCc1cc(N(C)c2ccccc2)nc(-c2ccccc2)n1	88*	-4	2	-3
63	COCC(=O)Nc1ccc(OCc2ccccc2)cc1	7	3	8	5
64	O=C(NCC1CCCO1)c1nc2c(nnn2Cc2ccccc2Cl)c(=O)[nH]1 (configuration not stated)	-6	-9	1	3
65	Cc1cccc(-n2nnc(C(=O)NCc3ccccn3)c2N)c1	-1	3	6	-15
66	COc1ccc(Cl)cc1NC(=O)CN(C)C(=O)COc1ccccc1F	-2	7	3	-1
67	N#C/C(=N\Nc1cccc(F)c1)C(=N)N1CCCCCC1	.	.	.	-1
68	COc1ccccc1-c1ccc(SCC(=O)NCCc2ccccc2)nn1	8	-2	-2	-31
69	O=C(Nc1ccc(N2CCN(C(=O)c3ccccc3)CC2)c(Cl)c1)c1ncn[nH]1	12	-10	1	4

entry	Autofluor counter	PrP 5UTR inh	RN4220 kill
61	1489	-21	-0.2
62	3736	-13	-0.4
63	2074	-47	2.7
64	7976	-23	4.7
65	4048	-17	2.1
66	4370	-19	3.9
67	4325	-48	.
68	4284	-14	6.1
69	4935	-4	0.3
